# Screens from PubChem BioAssay.
# hNpr1 antagonist = antagonists of human natriuretic peptide receptor Npr1 | actives 1.6% (n = 76,000) | Potency, µM (series often up to 46.3 µM), inactives show top-dose activity change, negative = inhibition, actives largely listed as inhibitors | P16066 | HEK293 hNpr1 GloSensor cGMP, ANP-stimulated luminescence | AID 1347048; active = well fitted inhibition curve with a large enough effect; inconclusive = small, poorly fitted or top-dose-only effect; inactive = no such curve, though single readings can be large or run the other way;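 note: nearly all actives have a fitted effect of over 60% in size; nearly all hits also lower the signal before the agonist is added; a reference antagonist and vehicle were the controls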
# Target sequence (P16066 whole entry, looked up): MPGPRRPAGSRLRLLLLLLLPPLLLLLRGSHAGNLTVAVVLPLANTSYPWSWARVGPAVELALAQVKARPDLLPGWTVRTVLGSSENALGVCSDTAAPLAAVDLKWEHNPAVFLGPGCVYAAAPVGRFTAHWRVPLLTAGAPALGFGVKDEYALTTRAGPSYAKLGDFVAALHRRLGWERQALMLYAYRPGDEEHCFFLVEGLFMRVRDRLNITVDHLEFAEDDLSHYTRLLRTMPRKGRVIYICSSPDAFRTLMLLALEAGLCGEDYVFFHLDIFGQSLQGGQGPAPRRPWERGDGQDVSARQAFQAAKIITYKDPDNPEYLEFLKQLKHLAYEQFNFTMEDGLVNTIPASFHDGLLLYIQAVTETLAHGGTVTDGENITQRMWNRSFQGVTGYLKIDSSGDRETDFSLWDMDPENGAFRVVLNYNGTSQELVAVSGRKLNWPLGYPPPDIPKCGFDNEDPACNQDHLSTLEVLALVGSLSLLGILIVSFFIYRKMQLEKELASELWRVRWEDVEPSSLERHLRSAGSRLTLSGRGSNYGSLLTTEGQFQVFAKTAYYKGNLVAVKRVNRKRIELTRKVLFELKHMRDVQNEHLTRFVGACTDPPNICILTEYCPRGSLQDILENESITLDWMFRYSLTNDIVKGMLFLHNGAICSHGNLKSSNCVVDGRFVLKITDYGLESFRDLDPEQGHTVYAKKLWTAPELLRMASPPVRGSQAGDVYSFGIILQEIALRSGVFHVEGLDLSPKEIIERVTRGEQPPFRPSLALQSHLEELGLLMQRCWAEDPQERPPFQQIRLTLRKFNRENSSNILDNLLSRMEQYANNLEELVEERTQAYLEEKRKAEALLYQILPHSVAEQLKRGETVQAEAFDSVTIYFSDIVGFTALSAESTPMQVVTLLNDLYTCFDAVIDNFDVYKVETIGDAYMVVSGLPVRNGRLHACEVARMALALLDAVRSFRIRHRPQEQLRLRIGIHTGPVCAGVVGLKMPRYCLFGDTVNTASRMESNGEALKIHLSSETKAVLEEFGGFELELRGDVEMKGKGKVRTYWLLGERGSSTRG
#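 HEK293 cells stably expressing human Npr1 and cGMP GloSensor pGS-40F, loaded 2 h with 2% GloSensor reagent, given compound 30 min at room temperature. Luminescence read before and 20 min after 0.1 nM hNppA.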
# Numbers without * were called inactive; ? = inconclusive; [ ] = another dose, or the depositor's remark. % is set by controls: 0 for no effect and ±100 for the full control effect; potency is the fitted concentration of half-maximal effect. Not all compounds are listed; count on the stated rates, not on these rows.
# The first 2 entries, ahead of the listing:
SMILES	hNpr1 antagonist
CN(C)C(=O)c1cccnc1OC1CCN(C(=O)c2cccs2)C1 (stereo not drawn)	-3%
O=C(O)CCC(=O)N[C@H]1CO[C@H]2[C@@H]1OC[C@@H]2n1nnnc1Oc1ccc(-n2ccnc2)cc1	-1%

# This part in full, from the first entry:
SMILES	hNpr1 antagonist
CN(C)C(=O)c1cccnc1OC1CCN(C(=O)c2cccs2)C1 (stereo not drawn)	-3%
O=C(O)CCC(=O)N[C@H]1CO[C@H]2[C@@H]1OC[C@@H]2n1nnnc1Oc1ccc(-n2ccnc2)cc1	-1%
Cn1nc(C(=O)N2CC(N(C3CCOCC3)S(C)(=O)=O)C2)c2ccccc21	-8%
Cn1c(C(=O)Nc2ccc3c(c2)OCO3)cc2c1CCN(Cc1cccc(F)c1)C2	-1%
Cc1ccc(-c2cc(-c3ccncc3)c3cncn3c2)cn1	0%[70.6 µM]
O=C(Cc1ccc(F)cc1)NCCn1ccn2nc(-c3ccc(F)cc3)cc2c1=O	?
CC(C)(C)n1nnnc1C1CC2(CCOCC2)C(=O)N1Cc1ccccc1F (stereo not drawn)	-14%
COCCN(CCOC)CC[C@@H]1CC[C@H](O)[C@@H](C(=O)NC2CC2)O1	6%[70.6 µM]
COc1ccc(OCc2nc(C)c(CCO)c(=O)n2CC(=O)Nc2ccc(OC)c(OC)c2)cc1	0%
Cc1cccc(NC(=O)CN2CC3CC(C2)[C@H]2CCCC(=O)N2C3)c1 (stereo partly drawn)	3%
Cc1ccc(-c2nnc([C@H]3CCN(c4nccc(C(F)(F)F)n4)C3)o2)cc1	-8%[70.6 µM]
CCCOc1ccc(Cl)cc1CNC(=O)C1CCN(CC(N)=O)CC1	-3%
O=c1[nH]nc2n1CCN(Cc1ccccc1F)CC2	1%
CCN1C(=O)CCC2(C(=O)Nc3ccc(C)cc3)CCCC=C12 (stereo not drawn)	-6%
CCOc1ccc(NC(=O)CN2C=C(C(=O)OC)C(C)=NS2(=O)=O)cc1	0%
CCCCN(Cc1ccsc1)C(=O)c1cnc(Nc2ccccc2)nc1	-1%
Cc1cnn(C2(C(=O)O)CCN(C(=O)c3cc(C)nc(C)n3)CC2)c1	17%
N#Cc1ccc(CN2CCC(c3nn(Cc4ccccc4)c(=O)[nH]3)CC2)cc1	1%
CC(C)n1c(C2CCN(C(=O)CC3CCCC3)CC2)nn(C)c1=O	-1%
Cc1noc([C@@H]2CN(Cc3ccc(F)cc3F)C[C@H]2CO)n1	0%
CC(C)C[C@@H]1N[C@H](C(=O)NCCN(C)C)Cc2cn(Cc3ccncc3)c3cccc1c23	1%[70.6 µM]
O=C(C[C@@H]1CCNC[C@@H]1Cc1cc(-c2ccccc2)on1)N1CCC(n2c(=O)[nH]c3ccccc32)CC1	1%
CC(C)CCN1CC2(CCCN(S(=O)(=O)c3cnn(C)c3)C2)CCC1=O (stereo not drawn)	-1%
CC(C)c1ccc(CN2CCc3ncc(C(=O)NCc4ccccc4)n3CC2)cc1	28µM*
COc1ccc(CNC(=O)C2(c3ccc(NC(C)=O)cc3)CCC2)cc1	-1%
CCOc1ccccc1CN1CCC2(CCN(CCC(C)C)CC2)Oc2ccccc21	0%
COCCNC(=O)[C@H]1C[C@H](Oc2ccccc2)CN1C(=O)COC	0%
O=C(Cn1nc2c(cc1=O)CCCCC2)NC1CCS(=O)(=O)C1 (stereo not drawn)	5%
Cc1cn2nc(C(=O)NCc3ccccc3)cc2c(=O)[nH]1	7%
CN1CC(=O)N(c2ccccc2)Cc2c(NCc3cccc(C(F)(F)F)c3)ncnc21	9%
O=C(NC1CCCC1)N1CCC(Oc2ccccc2-c2nc(-c3ccncc3)no2)C1 (stereo not drawn)	2%
COCCOc1ccnc(-c2noc([C@@H]3CCCN3Cc3ccncc3)n2)c1	0%[70.6 µM]
CCS(=O)(=O)NCCc1ncc(C)n1CCOC	4%
O=C(CC1CCCN(c2cnn(CC3CC3)c(=O)c2)C1)N1CCN(c2ccccn2)CC1 (stereo not drawn)	-28%
COCc1nc(CCNC(=O)c2cc(C)[nH]n2)no1	-1%
COc1cc(Cl)ccc1C(=O)N1CCN(C(=O)c2nnn3c2COC(c2ccccc2)C3)CC1 (stereo not drawn)	?
COCc1nc(C2CC(NC(=O)CN3C(=O)CN(C)C3=O)C2)cc(=O)[nH]1 (stereo not drawn)	-2%
COc1cc(CNC(=O)c2cnc3c(c2)N(c2ccccc2OC)CCC3)cc(OC)c1	-19%[70.6 µM]
O=C(C1CCCC1)N1CCN(C(=O)N2CC3CC(C2)[C@H]2CCCC(=O)N2C3)CC1 (stereo partly drawn)	4%
COc1ccc(C(=O)Nc2ccc(-c3noc([C@@H]4CCCN4Cc4ccccc4C)n3)cn2)cc1	10µM*
O=C(CCC1CCCN(S(=O)(=O)c2ccccc2)C1)NCc1ccc(Cl)cc1 (stereo not drawn)	?
CCOc1ccc2c(n1)CCN(C(=O)c1ccc(OC)nc1OC)C2	10%
c1ccc(-c2nc(C3CCOCC3)nn2CC2COCCO2)cc1 (stereo not drawn)	1%
Cn1nc2n(c1=O)CCN(C1CCOCC1)CC2	1%
Cc1cc2cccc(C(=O)N[C@H]3CCOC[C@H]3C3CCOCC3)c2o1	-1%
COc1cccc(CNC[C@H]2O[C@H](Cc3cc(-c4ccccn4)on3)CC[C@@H]2O)c1	-17%[70.6 µM]
CCN1CCC(CCNC(=O)C2CCCN(S(C)(=O)=O)CCC(=O)NCC2)CC1 (stereo not drawn)	-1%
CCC1(N2CCN(C(=O)c3ccc(N(C)C)cc3)CC2)CCN(C(=O)NC)C1 (stereo not drawn)	2%
COCc1cc(C[C@@H]2CC[C@H](O)[C@@H](CN(CC3CCCCC3)CC3CCCCC3)O2)no1	-18%
O=C1CCn2nnc(CNc3ccc(OC(F)(F)F)cc3)c2CN1Cc1ccccc1	1%[70.6 µM]
COc1cccc(CN2C[C@@H]3C(=O)N(Cc4ccc5c(c4)OCO5)C(=O)[C@@H]3C2)c1	-19%
CCn1cc(S(=O)(=O)N2C[C@H]3CN(CCO)C[C@@]3(C(=O)O)C2)cn1	0%
C#CCNC(=O)C1CN(c2ccccc2)C(=O)N1 (stereo not drawn)	-4%[70.6 µM]
CC(C)N1CCC(N2CCN(Cc3cn(C(C)C)c4ccccc34)CC2CCO)CC1 (stereo not drawn)	3%
CSCC(=O)N[C@H]1CCN2C(=O)c3cc(-c4ccc(Cl)cc4)ccc3NC(=O)[C@H]12	-20%[70.6 µM]
CC(C)C(=O)N1CCCCCCN(C)C(=O)[C@@H]2CCC[C@@H]21	4%

# The results go on.
SMILES	hNpr1 antagonist
CN1CCCCCC(O)c2cc(C(=O)NCCCN3CCCC3=O)ccc21 (stereo not drawn)	5%
O=C(c1cccc(F)c1)N1CCC(n2cc(-c3nc(-c4ccccc4)no3)nn2)C1 (stereo not drawn)	-5%
CCOc1ccccc1CN1CCC2(CCN(Cc3ccsc3)CC2)Oc2ccccc21	-3%
COc1cc(NC(=O)CN2C(=O)NC3(CCCCC3)C2=O)cc(OC)c1OC	-1%
Cc1cccc(CC(=O)N[C@@H]2CN(c3ccncn3)C[C@H]2CO)c1	-21%
CCC1(C(=O)NCc2ccc(N3CCC(C)CC3)cc2)CCCCC(=O)N1 (stereo not drawn)	-16%
CN(Cc1ccccc1)C(=O)[C@@]12CCCC[C@H]1N(C)C(=O)CC2	2%
CN1CC2(CCN(C(=O)c3cccnc3N(C)C3CCCCC3)CC2)OC1=O	-1%
O=C(C1CCCC1)N1Cc2ccccc2NC(=O)C12CCNCC2	1%
O=C1Nc2ccc(-c3cccc(C(F)(F)F)c3)cc2C(=O)N2CCN(C(=O)c3cccnc3)C[C@H]12	-4%
CCOc1ccccc1NC(=O)NCC(=O)N1CCCCCNC(=O)CC1c1ccccc1 (stereo not drawn)	1%
Cc1onc(C(=O)N2CCCCCCNC(=O)[C@@H]3CCCC[C@@H]32)c1Cn1cccn1	-16%
CSCCCNC(=O)c1c(C)noc1-c1ccco1	2%
COc1ccccc1-c1nnc([C@H]2CCN(Cc3ccccc3O)C2)o1	8%[70.6 µM]
CN1CC(=O)N(c2ccccc2F)Cc2c(NCCc3ccc(Cl)cc3)ncnc21	-15%
Cn1c(=O)oc2cc(S(=O)(=O)N3CCc4c(nc[nH]c4=O)C3)ccc21	-1%
Cn1cccc1CN1CCCC2(CN[S+](=O)([O-])c3ccccc3N2)C1 (stereo not drawn)	4%
Cc1cnc(C(=O)NC2C[C@H]3CC[C@@H](C2)N3C(=O)Cc2ccccc2)cn1 (stereo partly drawn)	2%
COC[C@@H]1CN(C(=O)c2ccc(OC)nc2)C[C@H]1C(N)=O	3%
C[C@H]1[C@@H]2[C@@H](O)C([C@H](C)C(=O)N(C)Cc3ccccc3)CC[C@@]2(C)CC[C@@H]1NC(=O)c1ccncc1 (stereo partly drawn)	-7%
COc1ccc(-c2cc(N3CCN(C(=O)c4ccc(C)cc4C)CC3)n[nH]2)cc1	?
Cc1ccc2c(C)c(C(=O)N3CCN(c4ccccc4)C(=O)C3)oc2c1C	0%
COCCN1C(=O)c2ccccc2C(C(=O)NCCC(C)C)C12CCCC2 (stereo not drawn)	-4%
CCOCC(=O)N1CCC(N2C(=O)C(O)C23CCCCC3)CC1 (stereo not drawn)	-13%
Cc1noc(C2CC3(CCN(C(=O)C(C)C)CC3)CN2C)n1 (stereo not drawn)	-2%
CC1=C[C@@H](CNS(=O)(=O)Cc2ccccc2)[C@H](C(C)C)C[C@H]1CC(=O)N1CCN(C)CC1	-2%
Cc1ccccc1-c1[nH]nc2ncc(-c3cnn(C)c3)nc12	1%[70.6 µM]
O=C(Nc1cccc(-c2nnc3n2CCCC3)c1)c1cccc(Cl)c1	-5%
Cn1cnc(S(=O)(=O)N2CCCC(Cc3noc(-c4cnccn4)n3)C2)c1 (stereo not drawn)	0%
COc1ccc(Cn2c(C3CCN(C(=O)COc4ccccc4)CC3)n[nH]c2=O)cc1	-5%
O=C(N[C@H]1CO[C@H]2[C@@H]1OC[C@@H]2n1nnnc1Oc1ccccc1)C1CC1	-10%[70.6 µM]
OCCOc1ccccc1CN1CCCC(N2CCN(c3ccccc3)CC2)C1 (stereo not drawn)	0%

# Reprinted from the entries so far for reference:
SMILES	hNpr1 antagonist
Cn1cnc(S(=O)(=O)N2CCCC(Cc3noc(-c4cnccn4)n3)C2)c1 (stereo not drawn)	0%
COc1ccc(Cn2c(C3CCN(C(=O)COc4ccccc4)CC3)n[nH]c2=O)cc1	-5%
O=C(N[C@H]1CO[C@H]2[C@@H]1OC[C@@H]2n1nnnc1Oc1ccccc1)C1CC1	-10%[70.6 µM]
OCCOc1ccccc1CN1CCCC(N2CCN(c3ccccc3)CC2)C1 (stereo not drawn)	0%

# (continued)
SMILES	hNpr1 antagonist
O=C(O)c1cc(Br)cc(S(=O)(=O)NCc2ccccn2)c1	6%
CN1c2cc(C(=O)N3CCN(c4cccc(Cl)c4)CC3)ccc2C(=O)N2CCCCC21 (stereo not drawn)	-2%
Nc1ncc(C(=O)N2CCC3(CC2)[C@H](O)C[C@@H]3O)c(C(F)(F)F)n1	16%
O=c1c2ccccc2cnn1CCNC1CCC2(CCNCC2)CC1	-1%
O=S(=O)(Cc1ccccc1F)N1CCCC(Cc2noc(C3CC3)n2)C1 (stereo not drawn)	-10%
Cc1ccc(C2Cn3cnc(C(=O)N4CCC(C(=O)NCc5ccccc5F)CC4)c3CO2)cc1 (stereo not drawn)	-13%
OC(COc1cccc(CN2CCC(c3ncon3)CC2)c1)CN1CCOCC1 (stereo not drawn)	1%
Cc1ccc(C(=O)N2C[C@@H](F)C[C@H]2C(=O)N2CCc3ccccc3C2)s1	2%
CC1(C)[C@H](Cc2cc(CC3CCCCC3)on2)C[C@@H]1NC(=O)C1CCC1	?
Cn1nccc1C(=O)N1CCC2(CC1)CC(N(Cc1ccc(F)cc1)C1CC1)CCO2 (stereo not drawn)	?
COC(=O)COCC(=O)NC[C@@H]1C=C(C)[C@H](CC(=O)NCc2ccc(F)cc2)C[C@H]1C(C)C	3%
CC(=O)Nc1ccc(-c2ccc(=O)n3c2[C@@H]2C[C@@H](CN(C(=O)COc4ccccc4)C2)C3)cc1	5%
O=C1c2c(nc(COc3cccc(Cl)c3)n2Cc2ccccc2)NCCN1CCOc1ccccc1	-17%
CN(C)c1ccc(C(=O)N2CCCC(n3cc(-c4nc(-c5ccccc5)no4)nn3)C2)cc1 (stereo not drawn)	?
Cc1ccc(-c2ncc(C(=O)N3CCC[C@H](N)C3)c(=O)[nH]2)cc1	6%
CC1CCCN(c2ncnc3c2CN(c2ccccc2F)C(=O)CN3C)C1 (stereo not drawn)	6%
Cc1ccc2nc([C@H]3CCN(C(=O)c4ccccc4)C3)[nH]c2c1	-1%[70.6 µM]
Cc1ccc(C(=O)N2CC(C(=O)NCCc3ccncc3)C3(CCOCC3)C2)cc1C (stereo not drawn)	1%
CCN1c2cc(C(=O)N3CCOCC3)ccc2C(=O)N2CCCCCC21 (stereo not drawn)	-4%
COc1ccc(C(=O)N2CCC(N3C[C@H](O)C[C@H]3C(=O)NC3CCCCC3)CC2)cn1	-1%
O=C(N[C@H]1CO[C@H]2[C@@H]1OC[C@H]2OCc1ccccc1)c1ccc(C(F)(F)F)cc1	?
CN(C1CCOc2ccccc21)S(C)(=O)=O (stereo not drawn)	8%[70.6 µM]
O=C(Cn1nc2c(cc1=O)CCCCC2)NCCc1cccc(F)c1	3%
CNc1ncccc1C(=O)N1CC[C@@H](c2ccc3c(c2)OCO3)[C@H](O)C1	-3%
